Source: PubChem (National Center for Advancing Translational Sciences (NCATS))
KDM4E inh – qHTS Assay for Inhibitors of Human Jumonji Domain Containing 2E (JMJD2E); 230,000 compounds, 1.6% hits; Potency, µM (series often up to 57.1 µM), for the others: top-dose activity change, negative = inhibition, hits mostly inhibitors; Lysine-specific demethylase 4E (Homo sapiens), B2RXH2; JMJD2E catalytic domain, FDH-coupled NADH fluorescence (FDH is formaldehyde dehydrogenase); active = well fitted inhibition curve with a large enough effect, not every such curve was filed as active; inconclusive = small, poorly fitted or top-dose-only effect, or another doubt; inactive = no such curve, though single readings can be large or run the other way;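 also: 0% = wells with enzyme and -100% = buffer wells without enzyme; nearly all actives have a fitted effect of over 50% in size; many of its hits are not listed in these tables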
Target sequence (B2RXH2 1-337 limits assumed): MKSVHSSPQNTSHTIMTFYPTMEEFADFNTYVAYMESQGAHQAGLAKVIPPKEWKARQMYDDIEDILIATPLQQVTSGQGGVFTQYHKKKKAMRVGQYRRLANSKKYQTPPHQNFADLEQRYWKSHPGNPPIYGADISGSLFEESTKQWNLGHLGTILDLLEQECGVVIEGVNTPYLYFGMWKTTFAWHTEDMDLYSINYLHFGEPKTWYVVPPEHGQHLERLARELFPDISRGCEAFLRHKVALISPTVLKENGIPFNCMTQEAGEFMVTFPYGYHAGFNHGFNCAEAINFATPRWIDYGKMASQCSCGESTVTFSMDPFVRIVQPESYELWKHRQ
Tau FP inhib – qHTS for Inhibitors of Tau Fibril Formation, Fluorescence Polarization. Microtubule-associated protein tau (Homo sapiens), P10636. Potency, µM (top dose mostly 57.7 µM), for inactives: at the top dose activity, negative = inhibition, most hits filed as inhibitors. 280,000 compounds, 0.39% hits. K18 P301L tau heparin fibrillization, Alexa594 FP, 6 h; also: % is scaled to controls: 0 for no effect and ±100 for the full control effect; nearly all actives have a fitted effect of over 55% in size
Target sequence (P10636 561-689 P618L limits assumed): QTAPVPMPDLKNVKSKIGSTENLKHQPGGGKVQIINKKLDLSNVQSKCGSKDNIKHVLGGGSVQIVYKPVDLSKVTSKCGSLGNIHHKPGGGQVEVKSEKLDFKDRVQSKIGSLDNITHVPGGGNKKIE
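Human K18 P301L fragment (15 uM unlabeled plus 0.24 uM Alexa 594-labeled) in 100 mM sodium acetate pH 7 with compound, aggregation induced by 20 uM heparin for 6 hr at 37 C. ThT (30 uM) added for 1 hr, then Alexa 594 FP read.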
Tau fluor counter – Counterscreen qHTS for Inhibitors of Tau Fibril Formation, Fluorescence Polarization. tau K18 P301L Alexa594 fluorescence, heparin fibrillization. Potency, µM (doses to about 57.7 µM), for inactives: at the top dose activity change, negative = decrease. 280,000 compounds, 0.93% hits; also: % is scaled to controls: 0 for no effect and ±100 for the full control effect; nearly all actives have a fitted effect of over 55% in size
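Human tau K18 P301L (15 uM unlabeled, 0.24 uM Alexa 594-labeled) in 100 mM sodium acetate pH 7 with 20 uM heparin, 6 hr at 37 C. ThT 30 uM added, 1 hr ambient; Alexa 594 FP and total fluorescence read at 555/632 nm.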
HTT cytoprotect – qHTS Multiplex Assay to Identify Dual Action Probes in a Cell Model of Huntington: Cytoprotection (ATP); PC12 HTT-Q103 induced, cytoprotection, ATP luminescence, 40 h; Potency, µM (series often up to 56.4 µM), without a hit: cytoprotection (ATP increase), usual class: activators; 230,000 compounds, 0.14% hits;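 also: % of control where 0% means no effect; nearly all actives have a fitted effect of over 45% in size; toxic huntingtin expression switched on by the ecdysone agonist tebufenozide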
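Cells were plated at 1500 per well in phenol red-free DMEM with 5% equine and 5% calf serum. Tebufenozide (100 nM final) and compounds were added, then ATPlite reagent, and luminescence was read.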
Tau ThT inhib – qHTS for Inhibitors of Tau Fibril Formation, Thioflavin T Binding | Microtubule-associated protein tau (Homo sapiens), P10636 | recombinant tau K18 P301L, heparin-induced fibrillization, ThT fluorescence | Potency, µM (doses to about 57.4 µM), for inactives: at the top dose activity, negative = inhibition, actives largely listed as inhibitors | 270,000 compounds, 2.1% hits | AID 1460, 2008; also: % is scaled to controls: 0 for no effect and ±100 for the full control effect; nearly all actives have a fitted effect of over 55% in size
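Using a mix of unlabeled (15 uM) and Alexa 594-labeled (0.24 uM) tau K18 P301L, heparin-triggered fibrillization over 6 hr at 37 C was scored by ThT fluorescence.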
HttQ103 aggreg – qHTS Multiplex Assay to Identify Dual Action Probes in a Cell Model of Huntington: Aggregate Formation (GFP) | PC12 HttQ103-GFP aggregates, Acumen cytometry, 40 h | Potency, µM (titrated, usually from 46.1 µM), for inactives: top-dose activity change, negative = inhibition, usual class: inhibitors | 220,000 compounds, 1.1% hits; also: % is scaled to controls: 0 for no effect and ±100 for the full control effect; nearly all actives have a fitted effect of over 60% in size
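Aggregates are detected as GFP objects 1–25 µm with signal 6 STDEV over background in lysates of induced PC12 cells. These carry Huntingtin exon 1 with 103 glutamines fused to GFP under an ecdysone promoter; compounds titrated.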
SMN2 splice up – qHTS Assay for Enhancers of SMN2 Splice Variant Expression | HEK293 SMN2-luciferase splicing reporter, luminescence, 30-36 h | Potency, µM (titrated, usually from 46.1 µM), inactives show top-dose activity change, positive = activation, actives largely listed as activators | 210,000 compounds, 2.8% hits | AID 1458, 2008; also: % of control where 0% means no effect; nearly all actives have a fitted effect of over 55% in size
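HEK293 cells carry an SMN2 minigene-luciferase reporter in which exon 7 inclusion puts luciferase in frame. Cells were seeded at 2000 cells/well, attached for 10-12 hours, then exposed to compounds for 30-36 hours at 37C before ONE-Glo luminescence.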
Active calls of the source: *; ? = inconclusive; . = no result given; [ ] = remark or other dose. Unless noted, calls follow the shape of the dose curve; as a rule, active = well fitted curve in the direction sought with a large enough effect; inconclusive = small, poorly fitted or top-dose-only effect, or another doubt; inactive = no such curve, though single readings can be large; an effect the other way counts as inactive or inconclusive. Potency is read from the fitted curve at half-maximal effect. This is a subset. The share of hits here may be higher or lower than overall.

SMILES	KDM4E inh	Tau FP inhib	Tau fluor counter	HTT cytoprotect	Tau ThT inhib	HttQ103 aggreg	SMN2 splice up
CCCCC(CCC(=O)Nc1ccccc1C(=O)OCC)C(=O)O (configuration not stated)	?	-2%	-7%	19%[10 µM]	-9%	-20%	8%
O=C(NCc1ccccc1)C1C(=O)N(Cc2ccccc2)C(=O)C1C1(O)CCCC1 (configuration not stated)	13%	4%	-2%	-6%	-1%	9%	.
Oc1ccc(Br)cc1/C=N/Nc1ncc(-c2ccccc2)cn1	6%	0%	-5%	17%	?	-21%	-85%[inhibitor]
COc1ccccc1NC(=O)Cc1noc(CN(C)Cc2cccs2)n1	-1%	2%	-5%	-17%	-5%	13%	.
Cc1ccc(-n2nc(C)c(NS(=O)(=O)c3ccccc3)c2C)cc1C	-2%	-8%	-17%	4%	-11%	-25%	-27%
O=C(Nn1cnnc1)c1cc2c(s1)CCCC2	0%	0%	-4%	-12%	-15%	-8%	7%
N/C(=N\OCc1ccc([N+](=O)[O-])cc1)c1ccncc1	-1%	-4%	-5%	-104%[inhibitor]	-15%	2%	16µM*
O=C1C(Cl)=C(Nc2ccccc2O)C(=O)N1c1ccccc1	?	?	?	-3%	14µM*	2%	-9%
COc1cccc(NC(=O)CC2COc3ccccc3O2)c1 (configuration not stated)	-7%	-2%	-16%	0%	-16%	17%	-9%
COc1ccc(OC)c(NC(=O)CSc2nnnn2C)c1	0%	-9%	-9%	-26%	-4%	-11%	-18%
CCOC(=O)c1c(-c2ccccc2)csc1NC(=S)NC	-7%	-5%	-30%	20%[10 µM]	-5%	-24%	2%
O=S(=O)(c1ccc(NC(=S)NCc2ccco2)cc1)N1CCCCC1	-9%	?	?	11%[10 µM]	4%	5%[9.22 µM]	.
COc1ccc(OC)c([C@@H]2OCCC=C[C@H]2C)c1	3%	-17%	-14%	.	-14%	6%	-9%
Cc1nc2sc(C(c3ccco3)N3CCN(c4cccc(Cl)c4)CC3)c(O)n2n1 (configuration not stated)	-2%	0%	-7%	18%[10 µM]	-17%	2%	-4%
CC1CCN(C(=O)COC(=O)c2ccc(Br)o2)CC1	13%	12%	-6%	-7%	-6%	-9%	-3%
Cc1ccc(OCC(=O)Nc2ccc3c(c2)nc2n3CCOC2)cc1	-6%	-3%	-9%	-20%[0.074 µM]	?	15%	9%
Cc1cc(C(=O)COC(=O)c2ccc(O)cc2)c(C)n1-c1ccccc1F	-8%	?	?	.	4%	24%	21%
COc1ccc(/C=C2\SC(=O)N(CC(=O)NNC(=O)c3ccccc3O)C2=O)cc1	?	?	-24%	.	-9%	-7%	7%
COc1cccc(C(=O)Nc2cnn(C(C)C)c2)c1	-1%	4%	-2%	-60%[inhibitor]	-1%	-7%	.
O=C(c1ccc(-c2ccccc2)cc1)N1CCN(c2nc3ccccc3o2)CC1	-6%	-10%	2%	6%	2%	20%[9.22 µM]	.
CSC1=NCCN1S(=O)(=O)c1ccccc1	8%	1%	-6%	-6%	-5%	0%	-9%
O=c1cc(CSc2nnc(-c3cccnc3)n2-c2ccccc2F)nc2sccn12	-2%	-3%	-6%	-4%	-9%	-8%	-3%
O=C(O)C1CCN(C(=O)c2scc3c2OCCO3)CC1	3%	-12%	-10%	-3%	2%	15%	-3%
CCc1ccccc1NC(=O)CSc1nnc(Cn2cnc3ccccc32)o1	11%	-6%	-7%	4%[1.9 µM]	-7%	4%	?
CC(C)(C)n1nc2c(c1NC(=O)Cc1cccc3ccccc13)CS(=O)C2 (configuration not stated)	3%	-1%	4%	-11%	-3%	14%	-8%
CCOC(=O)c1c(C)[nH]c(N=Nc2cccc(C)c2)c1C	1%	7%	?	-38%	10µM*	?	7.9µM*
Cc1c(NC(=O)C(C)Oc2ncnc3ccccc23)c(=O)n(-c2ccccc2)n1C (configuration not stated)	4%	-1%	3%	1%[10 µM]	-1%	4%	-6%
COc1ccc2nc(NC(=S)N(C)C)sc2c1	-4%	?	?	-93%[inhibitor][10 µM]	?	?	-18%
Cc1cc(Nc2ccc(F)cc2C)n2ncnc2n1	-3%	-2%	4%	?	-14%	-5%	9%
CCOC(=O)c1sc(NC(=O)c2ccc(S(=O)(=O)N3CCCCCC3)cc2)nc1-c1ccccc1	-23%	?	-28%	.	-15%	?	-78%[inhibitor]
COc1ccccc1OCC(O)Cn1c(=N)n(Cc2ccccc2)c2ccccc21 (configuration not stated)	-7%	-5%	3%	-7%[10 µM]	6%	?	-34%[inhibitor]
COc1ccc2c(c1OC)C(=O)N1c3ccccc3C(=O)N(c3ccc(F)cc3)C21 (configuration not stated)	0%	4%	4%	-18%[10 µM]	-1%	-16%	-20%
O=C(COc1cccnc1[N+](=O)[O-])Nc1ccccc1Sc1ccccc1	1%	-5%	14%	13%[10 µM]	10%	3%	1%
O=C(N/N=C1/CC2C=CCC12)c1ccco1 (configuration not stated)	-1%	2%	12%	-1%[10 µM]	6%	-4%	16%
O=C(CSC1=NCCS1)Nc1nc(-c2ccccc2)cs1	-7%	-5%	?	-4%	-21%	14%	9%
Cc1ccc(-c2n[nH]c(=O)c3ccccc23)cc1S(=O)(=O)N(C)CCO	3%	7%	-1%	11%	-6%	32%	-12%
COC(=O)N(NC(=O)C(O)(c1ccccc1)c1ccccc1)c1ccc(C)cc1	-1%	15%	-3%	24%[1.9 µM]	-6%	-2%	5%
CC1CCCCC1NC(=O)CO/N=C/c1ccccc1OC(F)F (configuration not stated)	3%	-2%	-9%	-34%[10 µM]	-1%	-3%	-8%
Cc1ccc(C)c(NC(=O)c2ccc3c(c2)N(Cc2ccc(F)cc2)C(=O)CS3=O)c1 (configuration not stated)	4%	6%	-4%	18%[10 µM]	2%	0%	-15%
CCOC(=O)NC(Nc1sc2c(c1C(=O)OC)CCN(C)C2)(C(F)(F)F)C(F)(F)F	?	0%	-5%	11%	-12%	-4%	10%
COC(=O)Cn1cnc2sc(C)c(S(=O)(=O)N3CCN(c4ccccc4OC)CC3)c2c1=O	3%	2%	-5%	0%[10 µM]	-8%	11%	-7%
Cc1ccc(N=Cc2c(O)n(-c3nccs3)c(=O)c3ccccc23)cc1	?	-13%	2%	-13%[10 µM]	8%	16%	-12%
CCCCNC(=O)CCN1N=C(c2ccccc2)CCC1=O	-2%	0%	-1%	.	0%	38%	9%
CC1(C)NC(=O)N(CC(O)CNC23CC4CC(CC(C4)C2)C3)C1=O (configuration not stated)	-4%	4%	2%	-12%[0.074 µM]	1%	?	.
Cc1ccc(-c2nc3ccccc3c(=O)n2CCCn2ccnc2)cc1	2%	0%	-1%	-21%	-4%	6%	-11%
CCCSc1nc2c3c(sc2c(=O)[nH]1)CC(C)(CC)OC3 (configuration not stated)	-11%	-7%	-17%	-3%	-6%	-4%	9%
C#CC1(NC(=O)NCCCC)CCCCC1	4%	-8%	4%	-4%[10 µM]	0%	-6%[9.22 µM]	.
Cc1ccc(S(=O)(=O)N2CCN(C(=O)CSc3nnnn3C)C2)cc1	-6%	-1%	0%	-3%[0.074 µM]	3%	-11%	-9%
